Sa growth 42C: S. aureus growth inhibition; S. aureus RN4220 growth, OD600, 20 h, 42 °C; active compounds read low; relative growth, % (no concentration beside the values); 170,000 tested, 0.53% active;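 active = growth at 42 °C up to 50% and 20 or more points under that at 30 °C, or under 10% at both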;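 also: 300 nL library stock went into each well; scaled to the means of positive and negative controls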
GIV Gai3 FP: inhibitors of GIV GBA-motif binding to rat Galpha-i3; P08753; Galpha-i3/FITC-GIV peptide fluorescence polarization, 90 min; active compounds read low; scaled: aluminum fluoride 0%, vehicle 100%; percent of control (FP), % (no concentration beside the values); 210,000 tested, 0.42% active;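 active = replicate mean at 85% of control or lower, very high polarization wells dropped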;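 also: wells of about 15 µL received 100 nL stock; the first replicate is given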
Target sequence (P08753 whole entry, looked up): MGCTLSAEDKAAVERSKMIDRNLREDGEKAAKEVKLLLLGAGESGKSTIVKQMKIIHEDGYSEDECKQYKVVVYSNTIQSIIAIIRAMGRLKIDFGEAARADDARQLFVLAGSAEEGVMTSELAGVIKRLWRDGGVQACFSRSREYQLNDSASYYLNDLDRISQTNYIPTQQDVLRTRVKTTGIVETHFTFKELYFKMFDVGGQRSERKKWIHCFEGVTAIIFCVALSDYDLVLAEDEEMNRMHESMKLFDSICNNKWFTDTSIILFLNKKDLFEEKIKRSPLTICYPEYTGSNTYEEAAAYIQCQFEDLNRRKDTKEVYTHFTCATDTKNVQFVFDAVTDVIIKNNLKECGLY
HCMV NEC inh: inhibitors of HCMV UL50-UL53 nuclear egress complex interaction | inhibition, % (concentration not given with the values) | AID 1918969 | HTRF UL50-UL53 interaction, normalized percent inhibition | 190,000 tested, 0.15% active;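 active = both replicates at 50% or more, plus weaker picks with an unusually low signal ratio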;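 also: stock transfer was 100 nL into about 20 µL; 0% = negative control wells and 100% = wells with untagged competitor protein; inactives centre near -12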
Sa growth 42C second temp: also measured in Sa growth 42C; calls as there; relative growth, %; measured here: growth at 30 °C;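 optical density after 20 h as mean of two plates; 100% = untreated growth and lower means inhibition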
The depositor's hits bear a star; · = not tested or not shown; & = joins results of further samples.

Values run as follows: Sa growth 42C, Sa growth 42C second temp, GIV Gai3 FP, HCMV NEC inh
1	CN1C=C(c2ccccc2)N(c2ccccc2)C1
    97.3, 115.2, ·, 18.3
2	O=C(Cn1cnc2c(nnn2Cc2ccc(Cl)cc2)c1=O)NC1CCCCC1
    94.8, 77.8, 98.7, ·
3	O=C(O)/C(=C/c1cccs1)c1cccs1
    101.7, 101.7, ·, -10.4
4	O=C(Cn1cnnn1)Nc1ccc(Sc2ccc(Br)cc2)cc1
    82.0, 93.5, ·, -19.2
5	Cc1oc(C(C)(C)C)cc1-c1cc(NS(=O)(=O)c2ccc(Cl)cc2)n[nH]1
    96.3, 74.5, 105.0, -21.5
6	NCCc1nc2cccnc2n1-c1ccccc1
    116.0, 91.0, 112.5, ·
7	CC(C)n1nccc1N(CC(=O)N(C)C1CCCCC1)S(=O)(=O)c1ccccc1
    77.5, 93.4, ·, -5.4
8	CCOc1cc(/C=C2/SC(N)=NC2=O)ccc1OCc1ccccc1
    ·, ·, 106.2, -15.8
9	COc1ccc(OCC(=O)Nc2ccc(-c3nc4cc(Cl)ccc4o3)cc2)cc1
    97.3, 100.9, 102.7, -2.5
10	Cc1ccc2c(c1)-c1c(cnn1CC(=O)N1CCN(c3cccc(C(F)(F)F)c3)CC1)CO2
    99.4, 87.0, 100.7, -30.7
11	COC(=O)Nc1nc2c(C)cccc2s1
    98.4, 112.4, 110.5, 4.0
12	COc1ccccc1CNC(=O)CCc1c(C)c2cc3c(C)coc3cc2oc1=O
    108.0, 83.7, 99.2, -11.6
13	Cc1ccc2c(c1)c1c(c(=O)n(-c3cccc(Cl)c3)c(=O)n1CC(=O)NCC1CCCO1)n2C (stereo not drawn)
    113.5, 90.4, 107.8, ·
14	CCN(/C=C/C(=O)c1ccccc1O)CC
    101.4, 87.3, ·, -36.9
15	CCC1(C)CC(C(=O)c2cccc(C)c2)CCO1 (stereo not drawn)
    101.5, 87.5, 102.5, 2.7

The results go on:
Values run as follows: Sa growth 42C, Sa growth 42C second temp, GIV Gai3 FP, HCMV NEC inh
16	CC(=O)c1ccc(NC(=O)Cn2nc(C(F)(F)F)c3c2CCC3)cc1
    106.7, 86.9, 102.2, -32.6
17	Cc1nn(-c2ccccc2)c2sc(C(=O)N3CCOCC3)cc12
    94.2, 96.0, 95.6, 5.1
18	Cc1nn(-c2ccccc2)c(C)c1CN(C)C(=O)CNC(=O)c1cccs1
    87.6, 79.9, ·, -15.3
19	CCOC(=O)n1c(=O)sc2ccccc21
    115.3, 98.5, ·, 3.5
20	NC(=O)C1CCCCN1Cc1cc2c(cc1O)CCC2 (stereo not drawn)
    84.7, 97.6, ·, -20.2
21	COc1ccc(C(=O)NCc2cn3ccc(C)cc3n2)cc1
    102.1, 93.2, 103.0, -12.2
22	c1ccc2[nH]c(CNc3ncnc4sccc34)nc2c1
    79.2, 89.0, ·, -13.6
23	CS(=O)(=O)N1CCCc2cc(C(=O)NCC(=O)Nc3ccc(F)c(F)c3)ccc21
    98.1, 86.7, ·, -14.6
24	N#C/C(=C\N1CCc2ccccc21)S(=O)(=O)c1ccc(C(F)(F)F)cn1
    96.3, 91.6, 102.8, 0.5
25	CCOc1cc(C2C(C#N)=C(C)NC3=C2C(=O)CC(c2ccccc2)C3)ccc1OC(C)=O (stereo not drawn)
    ·, ·, 106.0, -11.5
26	Cc1cc(C(=O)OCc2nc(N)nc(N)n2)c2ccccc2n1
    102.2, 78.6, ·, -37.6
27	CCCN(CCC)C(=O)c1cc2c(=O)n3cccc(C)c3nc2s1
    97.3, 89.4, 102.7, -1.3
28	O=C(NC1CCCC1)C1CCCCN1S(=O)(=O)c1ccc(F)cc1 (stereo not drawn)
    ·, ·, 105.6, -12.7
29	COc1ccc(OCCNC(C)=O)cc1
    94.4, 96.3, ·, 6.0
30	CCc1ccc(NC(=O)Cn2c(=O)n(-c3ccccc3)c(=O)c3ccc(C(=O)NCc4ccc5c(c4)OCO5)cc32)cc1
    96.6, 105.3, 100.7, -0.2

A different layout for some results above:
13: Cc1ccc2c(c1)c1c(c(=O)n(-c3cccc(Cl)c3)c(=O)n1CC(=O)NCC1CCCO1)n2C (stereo not drawn)
14: CCN(/C=C/C(=O)c1ccccc1O)CC
15: CCC1(C)CC(C(=O)c2cccc(C)c2)CCO1 (stereo not drawn)
16: CC(=O)c1ccc(NC(=O)Cn2nc(C(F)(F)F)c3c2CCC3)cc1
17: Cc1nn(-c2ccccc2)c2sc(C(=O)N3CCOCC3)cc12
18: Cc1nn(-c2ccccc2)c(C)c1CN(C)C(=O)CNC(=O)c1cccs1
19: CCOC(=O)n1c(=O)sc2ccccc21
20: NC(=O)C1CCCCN1Cc1cc2c(cc1O)CCC2 (stereo not drawn)
21: COc1ccc(C(=O)NCc2cn3ccc(C)cc3n2)cc1
22: c1ccc2[nH]c(CNc3ncnc4sccc34)nc2c1
23: CS(=O)(=O)N1CCCc2cc(C(=O)NCC(=O)Nc3ccc(F)c(F)c3)ccc21
24: N#C/C(=C\N1CCc2ccccc21)S(=O)(=O)c1ccc(C(F)(F)F)cn1
Assay by compound	13	14	15	16	17	18	19	20	21	22	23	24
Sa growth 42C	113.5	101.4	101.5	106.7	94.2	87.6	115.3	84.7	102.1	79.2	98.1	96.3
Sa growth 42C second temp	90.4	87.3	87.5	86.9	96.0	79.9	98.5	97.6	93.2	89.0	86.7	91.6
GIV Gai3 FP	107.8	·	102.5	102.2	95.6	·	·	·	103.0	·	·	102.8
HCMV NEC inh	·	-36.9	2.7	-32.6	5.1	-15.3	3.5	-20.2	-12.2	-13.6	-14.6	0.5

25: CCOc1cc(C2C(C#N)=C(C)NC3=C2C(=O)CC(c2ccccc2)C3)ccc1OC(C)=O (stereo not drawn)
26: Cc1cc(C(=O)OCc2nc(N)nc(N)n2)c2ccccc2n1
27: CCCN(CCC)C(=O)c1cc2c(=O)n3cccc(C)c3nc2s1
Assay by compound	25	26	27
Sa growth 42C	·	102.2	97.3
Sa growth 42C second temp	·	78.6	89.4
GIV Gai3 FP	106.0	·	102.7
HCMV NEC inh	-11.5	-37.6	-1.3

Next section.
Values run as follows: Sa growth 42C, Sa growth 42C second temp, GIV Gai3 FP, HCMV NEC inh
31	COc1cc2c(cc1OC)C(COc1ccc3c(C)cc(=O)oc3c1)N(C(=O)c1ccc(C)cc1)CC2 (stereo not drawn)
    91.2, 90.4, 105.3, 0.6
32	Cc1nc(-c2cc(S(=O)(=O)NCC(=O)NC3CCCC3)c(C)s2)no1
    ·, ·, 100.5, -10.6
33	O=C(CSc1nc2ccccc2c(=O)n1CCc1ccccc1)N1CCCC1
    107.0, 86.0, 97.6, 3.5
34	O=C(NCC(c1cccnc1)N1CCc2ccccc21)c1ccc(Cl)cc1 (stereo not drawn)
    100.2, 73.1, 107.2, -12.4
35	Cc1nc2c(-c3ccccc3)c(C)nn2c(C)c1CCC(=O)N1CCN(c2ccccc2)CC1
    96.0, 93.2, 104.7, -39.2
36	O=C(c1ccco1)N1CCCn2c(SCc3ccccc3)nnc21
    110.5, 80.8, 102.8, 36.4
37	CCOC(=O)c1sc(SCc2cccc(Cl)c2)c(S(=O)(=O)C(C)C)c1-n1cccc1
    97.2, 86.0, 109.1, -36.7
38	Cc1nnc(-c2ccccc2)c(=O)n1/N=C/c1ccc(O)c(O)c1
    119.5, 79.8, ·, -24.1
39	Cc1cccc(CC(=O)NC2CC(=O)N(c3ccc4c(c3)OCCO4)C2)c1 (stereo not drawn)
    106.0, 84.3, 99.5, ·
40	O=c1cc(NCc2cccs2)[nH]c(=O)n1-c1ccc(Br)cc1
    117.5, 97.1, 105.6, 3.1
41	COc1ccc(OC)c(S(=O)(=O)NCCc2sc(-c3cccnc3)nc2C)c1
    101.9, 79.8, 103.6, ·
42	CCOc1ccc(NC(=O)CN2CCN(CC(=O)Nc3ccccc3OCC)CC2)cc1
    115.6, 84.1, 101.7, ·
43	c1ccc(N(c2ccccc2)c2nc(-c3ccco3)cs2)cc1
    100.4, 95.9, ·, 2.8
44	O=C(Nc1cccc(Cl)c1)N1Cc2ccccc2Oc2ncccc21
    91.1, 80.5, 107.3&102.6, -0.7&-19.5
45	CCOc1ccc(OCC)c(S(=O)(=O)N2CCC(C)CC2)c1
    120.3, 90.4, 104.4, -23.0

Other structures follow:
Values run as follows: Sa growth 42C, Sa growth 42C second temp, GIV Gai3 FP, HCMV NEC inh
46	Cc1c2c(=O)n(-c3nc4ccccc4s3)nc-2cc(O)n1CCc1c[nH]c2ccccc12
    ·, ·, 109.4, -23.2
47	CC1(C(=O)NC2CCCC2)Cn2c(cc3sccc32)C(=O)N1C1CCN(Cc2ccccc2)CC1 (stereo not drawn)
    ·, ·, 98.3, -12.9
48	Cc1cccc(NC(=O)CCNS(=O)(=O)c2cccc3nsnc23)c1C
    102.8, 90.3, 99.6, -111.0
49	CC(=O)Oc1ccc2c(=O)c(-c3nc4ccccc4n3C)c(C)oc2c1
    102.7, 85.2, 98.4, -42.9
50	Cc1ccc(N2C(=O)C3C(C2=O)C2(C4OCCO4)C=CC3(C)O2)cc1 (stereo not drawn)
    ·, ·, 106.4, -24.0
51	C=CCn1c(SCC(=O)c2ccc(CC)cc2)nnc1-c1cccc(OC)c1
    79.1, 60.1, ·, -8.4
52	Cc1ccc(NC(=O)c2cccc3c2C(=O)N(C2CCCCC2)C3)c(C)c1
    74.1, 96.7, 110.5, -3.4
53	COCCNC(=O)CCCN1C(=O)c2ccccc2Sc2ncccc21
    102.0, 100.5, 99.0, ·
54	CCOC(=O)c1ccc2c(c1)C(=O)N(c1ccccc1OC)C2=O
    107.8, 93.4, 101.0, -64.3
55	CC1CCCC(C)N1/N=C/c1ccccc1OC(F)F (stereo not drawn)
    97.0, 87.5, ·, -25.8
56	O=C(NC1CCCCNC1=O)c1nc[nH]c1C(=O)NCc1ccccn1 (stereo not drawn)
    ·, ·, 110.4, -2.0
57	Nc1nonc1C(=O)NCCNCc1cccc(Cl)c1Cl
    111.0, 86.1, 107.4, -26.6
58	Cc1ccc(NC(=O)CN(CCO)c2ccccc2)cc1
    86.2, 91.9, ·, -38.3
59	O=C(c1ccc(Cl)cc1)N1CCc2c([nH]c3ccccc23)C1C(F)(F)F (stereo not drawn)
    84.2, 85.3, 107.6, 10.5
60	CCN1CCN(c2cc(C)c3cc(NC(=O)c4ccc(OC)c(OC)c4)ccc3n2)CC1
    80.2, 91.8, 100.3, 31.1

More entries.
Values run as follows: Sa growth 42C, Sa growth 42C second temp, GIV Gai3 FP, HCMV NEC inh
61	Cc1cc(=O)n2ccccc2c1C#N
    98.0, 91.6, ·, -60.4
62	CCCCSc1nnc2c(n1)OC(c1cc3c(cc1Br)OCO3)Nc1ccccc1-2 (stereo not drawn)
    ·, ·, 99.3, -33.4
63	Clc1ccc2c(N3CCN(c4ncccn4)CC3)ccnc2c1
    103.8, 89.5, ·, -40.4
64	Cc1ncoc1C(=O)Nc1ccccc1F
    87.5, 85.7, 95.7, ·
65	Cn1c(=O)c2c(nc(NC3CCCCC3)n2Cc2ccccc2Br)n(C)c1=O
    ·, ·, 106.8, -11.5
66	O=C(O)Cn1c(C(F)(F)F)nc2ccccc21
    ·, ·, 95.6, -15.7
67	CC(C)CNC(=O)Cc1csc(NC(=O)c2ccccc2)n1
    ·, ·, 109.8, -14.9
68	O=C(Cn1cnc2ccccc21)NC1CCCC1
    63.0, 92.0, 102.3, 13.2
69	O=C(NCC1CCCO1)c1c(-c2ccccc2)c(-c2ccccc2)n[nH]c1=O (stereo not drawn)
    ·, ·, 100.2, -26.5
70	CCOC(=O)c1sc2nc(C)nc(N(C)Cc3ccccc3)c2c1C
    85.4, 95.0, 103.5, ·
71	COC(=O)c1cc(C)nc2c1c(=O)nc(SCc1cccc(C)c1)n2C1CC1
    82.0, 86.8, 98.6, ·
72	Cc1ccc(S(=O)(=O)NC2CCCCC2n2cc(-c3ccccc3)nn2)cc1 (stereo not drawn)
    106.4, 88.0, 99.8, -2.5
73	CC(C)c1ccc(NC(=O)CCNS(=O)(=O)c2cccc3nsnc23)cc1
    93.7, 95.2, 102.9, -87.0
74	Cc1ccccc1OCC(=O)Nc1nnc(S(=O)(=O)N(C)c2ccccc2)s1
    87.5, 92.4, 105.8, -23.7
75	COc1ccc(C2CC(c3c(C)cc(C)[nH]c3=O)=NN2c2ccccc2C)cc1 (stereo not drawn)
    ·, ·, 97.5, -23.9

More entries.
Values run as follows: Sa growth 42C, Sa growth 42C second temp, GIV Gai3 FP, HCMV NEC inh
76	Cc1ccc(CNC(=O)COCc2cc(-c3cccs3)on2)cc1
    92.4, 86.6, 104.2, ·
77	COC(=O)c1sc(NC(=O)CSc2n[nH]c(-c3cccs3)n2)c(C(=O)OC)c1C
    90.4, 87.6, ·, -16.1
78	O=C(c1noc2c1CCCC2)N1CCC(c2c[nH]c3ccccc23)(c2c[nH]c3ccccc23)CC1
    106.2, 100.1, 97.2, -6.6
79	CC(CN1CCN(Cc2ccccc2)CC1)N(C(=O)c1ccoc1)c1ccccn1 (stereo not drawn)
    97.2, 91.1, 99.6&101.2, -154.0&-11.4
80	COc1ccccc1C(=O)OC1CCN(C)CC1
    95.4, 95.9, ·, 3.8
81	C=CCc1cccc2cc(C(=O)N3CCCCC3)c(=O)oc12
    106.0, 114.6, 99.0, -4.7
82	COc1ccc(CCn2c3c(c(=O)[nH]c2=O)C(NC(=O)c2ccccc2)(C(F)(F)F)C(=O)N3)cc1OC (stereo not drawn)
    98.6, 91.6, 101.4, -22.9
83	CCC1(CC)Cc2ccccc2-c2nc(-c3ccccc3)oc(=O)c21
    116.7, 92.7, 100.7, ·
84	O=C(Nc1ccc(F)cc1F)c1cccnc1Sc1cccs1
    122.7, 87.7, 101.0, -0.1
85	CCOC(=O)C1CCN(C(=O)c2cc3ccc4cccnc4c3[nH]2)CC1
    95.5, 92.8, 103.5, ·
